From PubChem BioAssay
CapD inh: blocks the Bacillus anthracis CapD enzyme; purified CapD enzyme, fluorescence intensity read-out; active compounds read low; some hits fall short of the stated cut; z-score (no concentration beside the values); 0.23% of 140,000 active;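 active means z-score under -4 in either of two replicates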;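 further: stock transfer was 100 nL into about 40 µL; score is relative to mean and spread of the plate; one replicate is shown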
AID504770: growth inhibitors of E. coli YBA685 in a screen for V. cholerae RctB (chromosome II replication) inhibitors. z-score (no concentration beside the values). 0.27% of 130,000 active. E. coli YBA685 rctB-dependent plasmid, OD600 growth, 3 h; active compounds read low. AID 504770;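 active means z-score under -2 on both plates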;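 further: wells of about 30 µL received 100 nL stock; score is relative to mean and SD of the test wells; the first replicate is given; strong numbers were not always called active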
* = called active by the depositor; · = not tested or not shown.

Each structure is followed by: CapD inh, AID504770
- COCc1cc(N2CCOCC2)nc(S(=O)Cc2ccc(Cl)cc2)n1 (stereo unspecified)
 : -0.22, ·
- Cc1nnc(Cl)c2ccccc12
 : ·, -1.3
- CCOc1ccc2c(CC)cc(=O)oc2c1C
 : 71, 0
- COc1ccc(C2C3=C(CCCC3=O)NC3=C2C(=O)c2ccccc23)c(OC)c1OC (stereo unspecified)
 : ·, -0.2
- Cc1ccc2c(c1)CCN2S(=O)(=O)c1ccc2oc(=O)ccc2c1
 : 0.075, ·
- O=C(COc1ccccc1)N1CCN(CC(O)COc2ccccc2)CC1 (stereo unspecified)
 : ·, -0.3
- CCOC(=O)C1CCN(C(=O)c2cccc3c2C(=O)N(C2CCCCC2)C3)CC1
 : 0.99, -0.55
- Cc1nn(-c2ccccc2)nc1C(=O)Nc1ccc2[nH]ccc2c1
 : -1.5, 0.75
- CCC(C)NC(=O)C1c2ccccc2C(=O)N1Cc1ccccc1 (stereo unspecified)
 : 0.04, -0.8
- Cc1ccccc1C(=O)N1CCc2ccccc2C1
 : 0.11, -0.4

Each structure is followed by: CapD inh, AID504770
- O=C(CN1C(=O)c2ccccc2S1(=O)=O)N1CCOCC1
 : -0.72, ·
- CN1C(=O)/C(=C2/Sc3ccccc3N2C)SC1=NC1CCCCC1
 : ·, 0.1
- CC(=O)n1nc(-c2ccc(Cl)cc2)nc1NCc1ccco1
 : -0.61, 0.3
- CC(C)(C)S(=O)(=O)/C(C#N)=C/Nc1ccc(Cl)cn1
 : -1.8, -0.75
- Cc1cc(S(=O)(=O)N(Cc2ccco2)CC2CCCO2)ccc1F (stereo unspecified)
 : -1.5, ·
- O=C(NC(=S)Nc1ccc(-c2nc3ccccc3o2)cc1)c1ccccc1
 : 46, -0.35
- Cc1cc(C)n(C(=O)CNC(=O)Cc2ccccc2)n1
 : ·, -1.1
- O=c1c2c3c(sc2nc2n1CCCCC2)CCCC3
 : -0.36, ·
- O=C(O)COc1cccc(F)c1
 : -1, 0.1
- COc1cc(/C=N/NC(=O)c2cc(C3CC3)nc3ccccc23)ccc1OCc1ccc([N+](=O)[O-])cc1
 : 0.98, ·

Each structure is followed by: CapD inh, AID504770
- FC(F)(F)c1cccc(-c2nc(-c3ncc(C(F)(F)F)cc3Cl)no2)c1
 : -0.69, ·
- CCc1nc2ccc(C(=O)NC(C)c3ccccc3)cc2nc1CC (stereo unspecified)
 : -0.91, -0.45
- COCC(C)n1c(C)cc(C(=O)Cn2ncc(Cl)c(Cl)c2=O)c1C (stereo unspecified)
 : ·, 0.3
- O=C(COC(=O)CC1CCCC1)Nc1cc(C(F)(F)F)ccc1Cl
 : 0.035, 0.3
- CC(=O)NC(=O)c1cc2cc(Br)ccc2oc1=Nc1ccc(F)cc1
 : -0.04, ·
- Cc1c(C(=O)Nc2ccccc2)sc2ncn(CC(=O)N3CCC(C)CC3)c(=O)c12
 : -0.95, 0
- COc1cc(OC)c(NC(=O)c2ccc3nc(N4CCOCC4)sc3c2)cc1Cl
 : 6.5, 0.15
- COCC(C)NS(=O)(=O)c1cc(C)ccc1OC (stereo unspecified)
 : -0.38, ·
- Cc1cc2c(cc3c(=O)n(CC(=O)NCCN4CCOCC4)ncn32)s1
 : -0.68, -0.05
- N#CC(=C1SCCS1)S(=O)(=O)c1ccc(Cl)cc1
 : -0.35, ·

Retrieved one by one from above (6):
Each structure is followed by: CapD inh, AID504770
- COc1cc(OC)c(NC(=O)c2ccc3nc(N4CCOCC4)sc3c2)cc1Cl
 : 6.5, 0.15
- Cc1ccc2c(c1)CCN2S(=O)(=O)c1ccc2oc(=O)ccc2c1
 : 0.075, ·
- FC(F)(F)c1cccc(-c2nc(-c3ncc(C(F)(F)F)cc3Cl)no2)c1
 : -0.69, ·
- Cc1cc(C)n(C(=O)CNC(=O)Cc2ccccc2)n1
 : ·, -1.1
- Cc1nn(-c2ccccc2)nc1C(=O)Nc1ccc2[nH]ccc2c1
 : -1.5, 0.75
- CN1C(=O)/C(=C2/Sc3ccccc3N2C)SC1=NC1CCCCC1
 : ·, 0.1

(more compounds)
Each structure is followed by: CapD inh, AID504770
- CN(c1ccccc1)c1nc(OC(C(F)(F)F)C(F)(F)F)nc(OC(C(F)(F)F)C(F)(F)F)n1
 : 0.42, -1.2
- CC1(C)CC(=NNC(=O)c2n[nH]c3c2CCC3)CC(C)(C)N1
 : ·, -0.65
- O=C(Nc1ccc2c(c1)OCCO2)c1ccc(CSc2ncn[nH]2)cc1
 : ·, -0.3
- COc1ccc(C=Nc2ccc3c(c2)nc(C)n3C)cc1
 : 0.93, 0.45
- CC(C)(C)c1ccc(OC(=O)c2ccc(Cl)cc2)cc1
 : -0.84, ·
- CN(C)S(=O)(=O)c1ccc(N2CCC(C(=O)O)CC2)cc1
 : 0.005, 0.15
- O=S(=O)(Nc1ccc(N2CCCCC2)cc1)c1ccccc1C(F)(F)F
 : ·, 0.1
- COc1cccc(CNS(=O)(=O)c2ccc3c(c2)OCC(C(=O)N2CCCCC2)O3)c1 (stereo unspecified)
 : 0.02, -1.2
- CCN(CC)Cc1c(C(C)(C)C)oc(C)c1C(=O)O
 : ·, -0.05
- CSc1ncccc1C(=O)OCC(=O)N1CCCC1
 : ·, -0.95

Each structure is followed by: CapD inh, AID504770
- CCc1ccc(CN(Cc2cccnc2)C(=O)c2cnc(C)cn2)cc1
 : ·, -0.55
- NC(=O)c1nc(-c2cccnc2)nc2c1[nH]c(=O)n2-c1ccccc1
 : 15, -0.3
- O=C1CSC(=S)N1c1cccc(C(F)(F)F)c1
 : -0.16, -0.65
- COc1cc(C2Nc3ccccc3NC3=C2C(=O)CC(c2ccc4c(c2)OCO4)C3)ccc1OC(C)=O (stereo unspecified)
 : -1.3, ·
- COCCCNC(=O)CSc1nc2cc(C(=O)NCC3CCCO3)ccc2c(=O)n1Cc1ccco1 (stereo unspecified)
 : -0.15, ·
- CC1(C)CC(=O)C2=C(C1)OC1=C(C(=O)CC(C)(C)C1)C2c1ccc(-c2cccc(Cl)c2)o1
 : -0.025, ·
- CN(C)C(CNC(=O)c1ccccc1Cl)c1ccccc1 (stereo unspecified)
 : ·, 0.1
- CC(C)(C)c1ccc(Cn2cnc(C#N)c2C#N)cc1
 : -0.3, -1.1
- COc1cc(CCNC(=O)OCCc2cccc(Br)c2)cc(OC)c1
 : 0.15, ·
- CCNC(=O)O/N=C1\CCCCC1c1ccc([N+](=O)[O-])cc1[N+](=O)[O-] (stereo unspecified)
 : -0.34, ·

Each structure is followed by: CapD inh, AID504770
- O=c1c2ccccc2nnn1CSc1ncnc2ccccc12
 : ·, 0.1
- CCCN(CC1CC1)S(=O)(=O)c1ccc(S(N)(=O)=O)cc1
 : 0.24, 0.05
- COc1cc2c(cc1OC)[C@@]13CCN4CC5=CCOC6CC(=O)N2C1[C@H]6[C@H]5C[C@H]43 (stereo partly specified)
 : ·, -0.1
- CCc1nn(C(C)C(=O)NCCc2ccccc2)c(=O)c2cc3occc3n12 (stereo unspecified)
 : -0.84, -0.5
- COc1ccc2c(CC(=O)OC(C)C(=O)NCc3ccc4c(c3)OCO4)coc2c1 (stereo unspecified)
 : ·, -0.35
- Cc1nc(SCC(=O)NCc2cccs2)n(C2CCCCC2)c1C
 : ·, 0.85
- CC(C)Cn1c(O)c(N=NC(=O)c2cccnc2)c2ccccc21
 : ·, 0.25
- O=S(=O)(c1ccc(Cl)cc1)N(C1CCNCC1)C1CC1
 : -0.61, ·
- O=C1NC(=O)C2C3c4ccccc4C(c4ccccc43)C12 (stereo unspecified)
 : ·, 1.5
- CS(=O)(=O)c1ccc2c(c1)ncn2Cc1ccccc1
 : -0.3, ·

Each structure is followed by: CapD inh, AID504770
- CC1CCCCN1C(=O)CSc1nc2cc3c(cc2c(=O)n1Cc1ccco1)OCO3 (stereo unspecified)
 : -0.025, 1.2
- CCCOc1ccc(-c2ccc(C(=O)O)cc2)cc1
 : 3.6, -0.35
- O=C1NN(c2ccccc2)C(=O)/C1=C1\C(=O)N(Cc2cccc3ccccc23)c2ccccc21
 : -0.6, ·
- Cc1csc(=O)n1CC(=O)Nc1ccccc1
 : ·, -0.15
- CNC(=O)CSc1ncn[nH]1
 : -0.23, -0.25
- CC(Sc1nc(=O)cc(N)n1-c1ccccc1)C(=O)Nc1ccccc1 (stereo unspecified)
 : 0.005, 0.35
- CCOC(=O)c1ccc(NC(=O)NCc2noc3ccc(C)cc23)cc1
 : 0.12, -0.8
- CC1CCCCN1C(=O)c1cccs1 (stereo unspecified)
 : 0.42, 0.3
- COc1ccc(Cl)cc1NC(=O)CN1CCN(S(=O)(=O)N(C)C)CC1
 : ·, 0.7
- CC(C)Cn1c(-c2ccc(Cl)cc2)cnc1SCC(=O)N1CCCC1
 : ·, -0.4

Each structure is followed by: CapD inh, AID504770
- N#CCCN(CCc1ccccc1)S(=O)(=O)c1cccc2nsnc12
 : -0.38, ·
- Cc1c(C(=O)N(C)Cc2ccccc2)sc2ncn(CC(=O)N3CC(C)CC(C)C3)c(=O)c12 (stereo unspecified)
 : -0.17, 2.3
- Cc1ccc(NC(=O)C2CCN(Cc3cnn(-c4ccccc4)c3-n3cccc3)CC2)cc1
 : -0.37, -0.55
- CCOC(=O)c1nnn(-c2nonc2N)c1CN1CC(C)OC(C)C1 (stereo unspecified)
 : 0.075, ·
- NNC(=O)CN1C(=O)CN=C(c2ccccc2)c2cc(Br)ccc21
 : 6.3, ·
- CCn1c(C)c2c(C)nn3cc(C)cc3c2c1C
 : 0.17, -0.45
- O=C(CO/N=C/c1ccco1)Nc1cccc(I)c1
 : ·, 0.25
- O=C1COc2c1c1c(c3oc(=O)ccc23)C(=O)CO1
 : 9.4, -0.1
- CC1CCCCC1NC(=O)COC(=O)COc1ccccc1F (stereo unspecified)
 : ·, -0.3
- CCN1CCN(C(=S)Nc2ccccc2)CC1
 : ·, 0.05

Each structure is followed by: CapD inh, AID504770
- O=S(=O)(c1cccc2nsnc12)N(CCOc1ccccc1)C1CCCCC1
 : ·, 1.1
- CCCCS(=O)(=O)NC1CCCCCCC1
 : 0.55, -0.55
- O=C1c2ccccc2C(=O)c2cc(S(=O)(=O)N3CCN(C/C=C/c4ccccc4)CC3)ccc21
 : 0.03, ·
- O/C(=C\c1ccc2ccccc2n1)c1ccc(O)cc1O
 : -2.1, -0.25
- N#CCCN(Cc1ccncc1)C(=O)c1sc2ccccc2c1Cl
 : -0.29, ·
- c1csc(-c2nc(N3CCN(Cc4ccc5c(c4)OCO5)CC3)c3ccccc3n2)c1
 : ·, -0.85
- COC(=O)c1c(C)c(C)[nH]c(=O)c1C#N
 : 32, -0.2
- COc1cccc2c1OC1=C(C2)C(=O)CC(C)(C)C1
 : 0.62, ·
- Cc1ccnc(NC(=O)c2nn3c(C(F)(F)F)cc(-c4ccco4)nc3c2Br)c1
 : 0.65, ·
- CCOc1ccc(NC(=O)C(C)N(c2ccc(OCC)cc2)S(C)(=O)=O)cc1 (stereo unspecified)
 : -0.39, -0.1

Sorted by formula weight (rising): some entries from above.
Each structure is followed by: CapD inh, AID504770
- COC(=O)c1c(C)c(C)[nH]c(=O)c1C#N
 : 32, -0.2
- O=S(=O)(c1cccc2nsnc12)N(CCOc1ccccc1)C1CCCCC1
 : ·, 1.1
- O=C1c2ccccc2C(=O)c2cc(S(=O)(=O)N3CCN(C/C=C/c4ccccc4)CC3)ccc21
 : 0.03, ·

Next part
Each structure is followed by: CapD inh, AID504770
- CCOC(=O)c1c(CC(C)C)csc1N
 : -0.3, -0.6
- Cc1nc2ccccn2c1-c1ccn[nH]1
 : 49, -1.7
- Cc1nc(-c2ccccc2)sc1C(=O)NNC(=O)OCc1ccccc1OC(F)(F)F
 : 2.9, ·
- CCOc1cc(C2N(C)C(=O)c3ccccc3N2C)ccc1O (stereo unspecified)
 : ·, 0.05
- CCOc1cccc2sc(NC(=O)c3ccccc3F)nc12
 : 0.93, 1.4
- COc1cc(C(=O)Nc2ccccc2SCCC#N)cc(OC)c1OC
 : -0.34, ·
- O=C(O)CCCc1cccs1
 : ·, -0.4
- CN(C)C(=O)CSc1nnc(-c2ccc(O)cc2)o1
 : ·, 0.25
- Clc1ccc(-c2cc(COc3cc(Cl)c(Cl)cc3Cl)on2)cc1
 : -0.54, ·
- Nc1c(C(=O)NC2CCCC2)c2nc3ccccc3nc2n1/N=C/c1cccnc1
 : ·, -0.4

Each structure is followed by: CapD inh, AID504770
- O=c1nc2c3ccccc3ncn2[nH]1
 : ·, -0.1
- CC1(C)CC(=O)c2c(C(=O)O)coc2C1
 : 0.55, -0.15
- O=C1c2ccccc2-c2n[nH]c(=O)c3ccc(N4CCOCC4)c1c23
 : -0.075, -0.35
- CCC(=O)N1N=C(c2ccc(NS(C)(=O)=O)cc2)CC1c1ccccc1 (stereo unspecified)
 : ·, -1.5
- COc1ccc(C2=N/C(=C/c3cc(Br)c(OC(C)=O)c(OC)c3)C(=O)O2)cc1
 : 6.8, ·
- CCCCn1c(CCC(=O)Nc2ccc(NC(C)=O)cc2)nc2cc(S(=O)(=O)N(C)C)ccc21
 : ·, 0.3
- Cn1c(C(=O)N(Cc2ccccc2)Cc2cccs2)cc2sccc21
 : ·, 1.2
- CC(=O)N1CN(C(C)=O)C(O)C1O (stereo unspecified)
 : -0.42, 2
- Cc1cc(I)ccc1NC(=O)c1ccc2c(c1)SC1=NS(=O)(=O)CCN12
 : ·, 1.8
- Cc1cccc(C)c1NC(=O)C(c1ccc(N(C)C)cc1)N1C(=O)CC1c1ccco1 (stereo unspecified)
 : -0.06, 0.95

Each structure is followed by: CapD inh, AID504770
- CC(C)(C)C(=O)COC(=O)Cn1nc(C(N)=O)c2ccccc2c1=O
 : ·, -0.55
- CCSc1nnc(-c2sc3ccccc3c2Cl)o1
 : ·, 0
- CSc1nc2ccc(NC(=O)CSc3nc4ccccc4[nH]3)cc2s1
 : -0.11, ·
- C(=Nc1ccc(N2CCOCC2)cc1)c1ccc(Sc2nc3ccccc3[nH]2)o1
 : -0.16, -0.35
- CC(Oc1ccc(-c2ccccc2)c(F)c1)c1ccn(C(=O)c2ccccc2)n1 (stereo unspecified)
 : 0.095, ·
- CCc1nnc(NC(=O)c2ccc(S(=O)(=O)N(CC)CC)cc2)s1
 : ·, 0.15
- Cc1[nH]c2ccccc2c1SCCNC(=O)C(C)C
 : -0.065, 0.1
